KCNQ2 enhance: potentiators of rat KCNQ2 potassium channel | AID 2239, 2010 | 310,000 tested, 0.54% active | CHO-K1 KCNQ2, FluxOR thallium flux fluorescence; hits give high values | B-score at 10 µM;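 active = fluorescence ratio B-score at least 3 SD of library B-scores, with initial fluorescence B-score within 3 SD, cut at about 5.3 in these data; same plate scores as AID 2156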;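 also: B-score of peak minus minimum over baseline fluorescence ratio after K+ and Tl+ stimulus; positive B-score means potentiation of KCNQ2 with more thallium influx and brighter signal; only the inactives scoring about 0 or higher are listed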
Target sequence (O88943 whole entry, looked up): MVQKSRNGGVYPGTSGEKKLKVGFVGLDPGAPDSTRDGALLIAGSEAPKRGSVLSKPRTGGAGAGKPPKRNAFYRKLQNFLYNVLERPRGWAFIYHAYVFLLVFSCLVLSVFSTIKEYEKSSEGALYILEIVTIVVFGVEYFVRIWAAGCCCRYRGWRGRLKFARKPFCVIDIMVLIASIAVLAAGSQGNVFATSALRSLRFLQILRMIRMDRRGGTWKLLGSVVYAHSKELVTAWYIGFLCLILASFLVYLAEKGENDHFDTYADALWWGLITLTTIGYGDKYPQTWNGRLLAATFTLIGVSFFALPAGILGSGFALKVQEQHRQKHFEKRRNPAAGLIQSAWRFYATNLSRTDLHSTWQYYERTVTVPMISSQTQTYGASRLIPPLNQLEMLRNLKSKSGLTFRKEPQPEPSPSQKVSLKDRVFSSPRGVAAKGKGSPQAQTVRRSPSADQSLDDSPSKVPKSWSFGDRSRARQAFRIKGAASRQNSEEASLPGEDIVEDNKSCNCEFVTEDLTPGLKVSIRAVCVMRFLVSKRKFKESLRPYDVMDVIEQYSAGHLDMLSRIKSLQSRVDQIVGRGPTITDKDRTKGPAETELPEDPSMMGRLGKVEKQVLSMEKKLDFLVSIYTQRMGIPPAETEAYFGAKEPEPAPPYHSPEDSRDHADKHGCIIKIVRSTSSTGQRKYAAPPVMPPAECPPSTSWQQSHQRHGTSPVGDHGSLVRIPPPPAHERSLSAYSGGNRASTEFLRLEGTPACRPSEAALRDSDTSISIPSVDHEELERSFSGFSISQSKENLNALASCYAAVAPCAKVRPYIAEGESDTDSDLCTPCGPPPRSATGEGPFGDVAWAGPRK
KCNQ2 enhance baseline: further read-out of KCNQ2 enhance, marked with its call; B-score; compound at 10 µM; measured here: initial fluorescence intensity artifact check;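 brightness before thallium and not channel activity; 0 = typical well and far values either way flag optical interference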
An asterisk follows results filed as active. The list is partial, so the mix of outcomes need not match the whole.

SMILES	KCNQ2 enhance	KCNQ2 enhance baseline
C=CCN(C(=O)c1csnn1)C(C(=O)NC1CCCC1)c1cccs1 (configuration not stated)	1.78	0.83
O=C(CC1C(=O)NCCN1C(=O)Nc1ccc(F)cc1F)Nc1ccc(F)cc1 (configuration not stated)	0.04	-3.43
Cc1ccc(S(=O)(=O)NC(C)C(=O)Nc2ccc3c(c2)OCO3)cc1 (configuration not stated)	1	-0.17
Cc1ccc(C(=O)N/N=C\c2cccs2)cn1	1.35	-1.24
Cc1ccc(CNc2nc3c([nH]2)c(=O)n(C)c(=O)n3C)cc1	1.15	1.38
COc1ccccc1N(CN1CCCC1=O)C(=O)COc1ccccc1	1.18	-0.26
O=C(CSc1nc(-c2ccccc2)nc2c1CCCC2)N1CCOCC1	0.69	-1.57
N#C/C(=C/c1ccc(-c2ccccc2[N+](=O)[O-])o1)C(=O)NCCN1CCCCC1	1.52	0.17
COCCNC(=O)C(OC(=O)c1nsc(Cl)c1Cl)C(C)C (configuration not stated)	0.48	-0.67
CCCOP(=O)(OCCC)C(NC(=O)C(C)(C)C)c1ccccc1 (configuration not stated)	0.51	0.04
CCC(=O)Nc1c(-c2ccc(C)cc2)c(=O)c2ccccc2n1C	0.49	0.39
O=C(Nc1ccc(N2CCCC2)c(Cl)c1)c1cccnc1	2.04	0.78
COc1ccc(CNC2CCCc3ccccc32)cc1OC (configuration not stated)	2.42	-0.08
COc1ccc(N2CCN(CC(=O)Nc3nc(C)cs3)CC2)cc1	0.38	0.19
Cc1ccc(Cc2cnc(NC(=O)/C(C#N)=C/c3ccc(-c4ccccc4[N+](=O)[O-])o3)s2)cc1	0.82	-1.74
Cc1ccc(S(=O)(=O)N2CCN(c3ncnc4sccc34)CC2)cc1	2.25	-1.47
COc1ccc(N2C(=O)C3[C@@H](C2=O)C2(Cl)C(Cl)=C(Cl)C3(Cl)C2(OC)OC)cc1 (some centres not stated)	1.98	-1.7
OC1(Cc2ccccc2)CCNCC1	0.02	-1.21
COc1cccc(OC)c1OCCNCCO	1.62	-0.45
CCCN1CCC(NC(=S)Nc2ccc(S(N)(=O)=O)cc2)CC1	0.55	0.24

Given field by field: entries from further up.
> Cc1ccc(C(=O)N/N=C\c2cccs2)cn1
  KCNQ2 enhance = 1.35
  KCNQ2 enhance baseline = -1.24

> Cc1ccc(CNc2nc3c([nH]2)c(=O)n(C)c(=O)n3C)cc1
  KCNQ2 enhance = 1.15
  KCNQ2 enhance baseline = 1.38

Entries of single compounds from above. Values in the order: KCNQ2 enhance, KCNQ2 enhance baseline
`COCCNC(=O)C(OC(=O)c1nsc(Cl)c1Cl)C(C)C` (configuration not stated) is listed with 0.48, -0.67
`C=CCN(C(=O)c1csnn1)C(C(=O)NC1CCCC1)c1cccs1` (configuration not stated) is listed with 1.78, 0.83
`COc1ccc(CNC2CCCc3ccccc32)cc1OC` (configuration not stated) is listed with 2.42, -0.08
`CCCN1CCC(NC(=S)Nc2ccc(S(N)(=O)=O)cc2)CC1` is listed with 0.55, 0.24
`Cc1ccc(C(=O)N/N=C\c2cccs2)cn1` is listed with 1.35, -1.24

(further entries)
SMILES	KCNQ2 enhance	KCNQ2 enhance baseline
CCCc1ccc2oc(C(=O)N3CCC(O)CC3)c(C)c2c1	0.66	-0.01
COc1cccc(C(=O)OCCN2CCOCC2)c1	0.02	-0.16
Cc1nc(COc2ccccc2Cl)sc1-c1ccnc(N)n1	0.29	0
COc1ccc(/C=N\NC(=O)CNC(=O)C2COc3ccccc3O2)cc1[N+](=O)[O-] (configuration not stated)	2.57	-0.53
CC1(c2ccc3noc(-c4cccc(F)c4)c3c2)OCCO1	0.2	0.7
CC1CCN(C(=O)Cn2cc(S(=O)(=O)CC(=O)N3CCOCC3)c3ccccc32)CC1	0.73	-1.27
Cc1ccc(C)c(-c2cc(C(=O)NN3CCOCC3)c3ccccc3n2)c1	3.55	3.87
O=C(O)Cn1c(Cc2ccccc2)nc2ccccc21	0.01	-2.97
Cc1ccc(-c2csc(NC(=O)CSc3nc4ccccc4[nH]3)n2)cc1	0.01	-1.76
CCn1nnnc1-c1ccc(OC)c(S(=O)(=O)N2CCCCC2)c1	1.39	0.53
NCCOc1ccc(C2CCCCC2)cc1	2.51	0.04
CCN(CC)CCOC(=O)c1ccc(Cl)cc1Cl	1.56	-0.09
O=C(NNC(=O)C1CCN(S(=O)(=O)c2cccc(C(F)(F)F)c2)CC1)C1CC1	0.5	0.23
Cc1ccc(CS(=O)(=O)CCC(=O)NCCC2=CCCCC2)cc1	0.7	-0.17
Cc1ccc(-c2cc(=O)c3cc(F)ccc3[nH]2)cc1	1.2	-0.83
Cc1cc(C(F)(F)F)n(-c2nc(C(=O)NNS(=O)(=O)c3ccccc3)cs2)n1	0.46	2.09
Cc1c(C(=O)NCc2ccco2)sc2nc(-c3ccccc3)cn12	0.04	-0.83
CCOC(=O)C(Cc1ccc(OC)c([N+](=O)[O-])c1)NC(=O)CCC(=O)Nc1ccc(OC)cc1 (configuration not stated)	0.13	-0.09
C=CCN1C(=O)C(C(C)CC)NC1=S (configuration not stated)	0.19	-0.21
CC(C)[C@H](NC(=O)c1ccco1)C(=O)OCC(=O)c1ccc2c(c1)NC(=O)CO2	0.26	-1.15
CCN(CCn1cccn1)C(=O)CCc1nnc(C2(c3ccc(Cl)cc3)CCC2)o1	0.58	3.25
CCc1cccc(C)c1NC(=O)c1ccc2c(c1)CCN2S(C)(=O)=O	1.04	2.6
O=C(CSCc1cc(=O)n2ccsc2n1)Nc1ccc(F)cc1	1.01	-2.72
COc1cc2c(cc1OC)C(c1cc3ccc(C)cc3[nH]c1=O)N(C(=O)c1ccco1)CC2 (configuration not stated)	0.33	-1.3
COC(=O)c1cc(C)sc1NC(=O)CCc1ccccc1	0.02	-0.29
O=C(CN1CCN(CC(=O)Nc2ccccc2Cl)CC1)Nc1ccc(F)c(F)c1	2.13	-1.39
CCOc1ccc2nc(/N=C/c3c(C)[nH]n(-c4ccc(C)cc4)c3=O)sc2c1	16.7*	-0.13*
COC(=O)C1=C(C)NC2=C(C(=O)CCC2)C1c1coc2ccccc2c1=O (configuration not stated)	0.22	0.5
Cc1cc(C)nc(SC2=CS(=O)(=O)c3ccccc32)n1	0.08	1.44
COc1ccccc1C(=O)NCCc1c(C)[nH]c2c(C)ccc(F)c12	0.02	0.38
O=C(C#Cc1ccccc1)Nc1ccc(F)cc1	1.04	0.49
O=C(CSc1nnc(-c2cccnc2)o1)Nc1cccc(Cl)c1	0.08	1.91
CCN(CC)C(=O)CN(C#N)c1nc(OC)nc(N(C)C)n1	0.32	-0.68
CN(C)c1ccc(S(=O)(=O)NCC(=O)OCC(=O)Nc2cc(Cl)cc(Cl)c2)cc1[N+](=O)[O-]	1.07	-0.11
CCOc1cc(C(=S)N2CCOCC2)ccc1OS(=O)(=O)c1ccc(NC(C)=O)cc1	1.36	-1.17
COc1ccc(OCC(=O)N/N=C/c2ccncc2)cc1	0.31	-0.32
Nc1cc(C(=O)OCC(=O)NCc2ccco2)ccc1Cl	0.84	-0.21
C#CCOCCOCCOCCNc1nc(OC)nc(N2CCN(C(=O)[C@H](CCCCN)n3cc(C(N)CO)nn3)CC2)n1 (some centres not stated)	0.61	-0.52
Cc1cccc(NC(=S)NC2CCCCCC2)c1C	0.7	-1.28
O=C(NC(=S)NCc1ccccc1)c1ccc(Br)o1	13*	-0.33*
C=C(C)C(=O)Nc1nnc(-c2cccs2)s1	0.01	-0.02
C=CCc1ccc(OCc2ccc(C(=O)Nc3ccc(NC(C)=O)cc3)o2)c(OC)c1	2.09	0.58
CC1CN(C(=O)c2cc(S(=O)(=O)N3CCN(c4ccccc4)CC3)ccc2Cl)CC(C)O1 (configuration not stated)	0.11	3.05
CCN(CC)S(=O)(=O)c1cc(NS(=O)(=O)c2cccc(Cl)c2)ccc1C	3.33	-0.27
O=C(O)C1=C[C@@H](C2CCCCC2)C[C@@H](OCc2ccc(CO)cc2)O1	0.25	0.82
CNC(=O)c1sc(=S)n(-c2ccc(OC)cc2)c1N	0.11	-0.12
N#Cc1ccc(NC(=O)c2cccs2)nc1	0.66	1.76
COc1ccc(Cn2nnnc2C(c2ccccc2Cl)N2CCN(C)CC2)cc1 (configuration not stated)	0.63	-1.17
COc1cc(C(O)c2nc3ccccc3s2)cc(OC)c1OC (configuration not stated)	0.11	-0.98
COc1ccc(Cl)cc1S(=O)(=O)N1CCN(C(=O)c2ccco2)CC1	0.67	0.72
Cc1ccc(OCC(=O)NNC(=O)CCC(=O)NCc2ccccc2)cc1	0.35	0.92
Cc1[nH]c2ccccc2c1C(=O)COC(=O)Cn1c(C(F)(F)F)nc2ccccc21	0.09	0.21
Cc1ccc(S(=O)(=O)N2CCOCC2)cc1NC(=O)Cn1nc(C)c([N+](=O)[O-])c1C	0.19	-0.82
Cc1ccc(S(=O)(=O)NC(CN2CCOCC2)=NCCNS(=O)(=O)c2ccccc2)cc1	0.02	-0.15
COC(=O)c1ccc2c(=O)n(CCCCCC(=O)O)c(=S)[nH]c2c1	1.45	0.4
Cc1ccc(CS(=O)(=O)Cc2ccc(C(=O)NC3CCCC3)o2)cc1	1.03	0.35
CC(C)NC(=O)c1ccc(COc2ccc(C(C)(C)C)cc2)o1	0.68	1.31
CCN(Cc1cc2ccc(C)cc2[nH]c1=O)C(=O)c1ccncc1	0.37	-0.38
CCCCCCNC1=NCCS1	0.32	0.9
COc1ccc(NC(=O)CSc2nc(C3CC3)nc3ccccc23)cc1	0.07	0.49

Remaining list, next part.
SMILES	KCNQ2 enhance	KCNQ2 enhance baseline
O=C1CCc2cc(NS(=O)(=O)c3ccc(F)cc3)cc3c2N1CC3	0.03	-1.13
O=c1cnnc(N/N=C/c2ccccn2)[nH]1	1.86	-0.55
CN(C(=O)CSc1nnc(-c2ccco2)o1)C1CCCCC1	0.7	-0.2
COc1ccc(S(=O)(=O)N(C)CC(=O)Nc2ccccc2SC)cc1	0.07	0.37
Cc1ccsc1/C=N/n1c(C2CCCCC2)n[nH]c1=S	1.21	-0.89
C(#Cc1ccc2c(c1)COc1c3ccccc3nn1-2)c1ccccc1	1.38	-1.4
NC(=O)C1CCN(C(=O)COc2ccc(Nc3ccccc3)cc2)CC1	0.83	-2.1
COc1ccc(NC(=O)c2ccco2)cc1NC(=O)COc1ccccc1[N+](=O)[O-]	0.23	-0.56
COCC1CCCN(C(=O)c2cc(COc3cncc(Cl)c3)on2)C1 (configuration not stated)	1.07	-0.12
Cc1ccc(-c2[nH]n3c(=O)c4c(nc3c2C)CCCC4)cc1	2.87	0.55
CCOCc1nnc(NC(=O)c2ccc(OC)cc2)s1	0.37	-0.37
Cn1c(NC(=O)/C=C\c2ccccc2)cc(=O)n(C)c1=O	0.05	0.4
Nc1nnn(CC(=O)N/N=C/c2cccc(Cl)c2)n1	1.15	-0.01
O=[N+]([O-])c1cccnc1NCCNc1ncc(C(F)(F)F)cc1Cl	0.81	0.55
CSc1ccc(NC(=O)N2CCN(c3nc4ccccc4s3)CC2)cc1	1.06	0.05
CCOC(=O)Cc1ccc(NCc2ccc(Cl)cc2)cc1	1.18	2.25
COc1ccccc1NC(=O)CSc1nnc(CNC(=O)c2ccccc2F)o1	1.4	0.38
CC(C)Nc1nc(NC(C)C)nc(N(C)C#N)n1	1.82	-1.02
Cc1cc(C)c(C#N)c(SCC(=O)C2CC2)n1	0.97	0.39
O=C(N1CCOCC1)C(F)(F)C(=O)N1CCOCC1	1	1.16
CCOc1ccc(CCNC(=O)Cc2ccc(S(=O)(=O)N3CCOCC3)s2)cc1OCC	0.12	-2.44
COc1ccccc1NC(=O)CN(c1ccc(C)cc1)S(=O)(=O)c1c(C)n[nH]c1C	0.24	-1.11
C=CCn1c(SCC(=O)N2CCOCC2)nc2sc3c(c2c1=O)CCCC3	2.48	-0.14
N#Cc1c(SCC(N)=O)nsc1SCc1ccccc1Cl	0.84	2.2
CC(C)(CO)NC(=O)CCCOc1ccc(Cl)cc1Cl	0.12	-0.41
Cc1cc(=O)oc2cc(OC(=O)c3ccccc3)ccc12	0.2	0.79
O=C1/C(=C/c2cccnc2)SC(=S)N1C1CCS(=O)(=O)C1 (configuration not stated)	0.29	-0.17
CCC(=O)Nc1ccc(-c2nnc(SCC(=O)NCC3CCCO3)n2C)cc1 (configuration not stated)	0.28	-1.61
O=C1O[C@@H]([C@H](O)CO)C(O)=C1O	0.7	-0.57
COc1ccccc1CNC(=O)c1ccc2c(=O)n3c(nc2c1)CCCCC3	0.05	-0.37
COc1cccc2cc(C(=O)C3=C(O)C(=O)N(CCN(C)C)C3c3ccc(F)cc3)oc12 (configuration not stated)	0.61	1.13
O=c1[nH]c2ccc(S(=O)(=O)N3CCN(c4ccccc4)CC3)cc2[nH]c1=O	0.02	-0.06
COc1ccc2nc(NC(=O)c3cc(C)oc3C)sc2c1	0.52	0.68
CCOc1ccc(C(=O)NCC(=O)NCC(c2ccc(OC)cc2)N2CCOCC2)cc1OCC (configuration not stated)	0.96	0.01
CC1C(=O)NN=C1C(=O)N/N=C/c1ccco1 (configuration not stated)	1.34	-0.37
CCOC(CNC(=O)c1ccc2c(c1)ncn2-c1cccc(F)c1)OCC	0.98	-1.74
CC1CCCN(C(=O)CCNS(=O)(=O)c2ccc3c(c2)c(=O)n(C)c(=O)n3C)C1 (configuration not stated)	0.27	-0.02
CCc1nnc(NC(=O)CSc2nc(-c3ccccc3)cc(-c3ccc(OC)cc3)c2C#N)s1	0.63	-0.83
COCCn1c(SCC(=O)c2c(N)n(C)c(=O)n(C)c2=O)nc2ccccc21	1.05	0.26
COC(=O)Nc1sccc1C(=O)Nc1sccc1C(=O)OC	0.5	-0.45
Cc1cc(NC(=O)c2cncc(Br)c2)ccc1NC(=O)c1cc2ccccc2o1	0.43	-1.3

Screening data (PubChem BioAssay)
